# E coli growth – inhibitors of Escherichia coli growth; OD600, 23 h; stronger effect = lower value; OD600 absorbance (no concentration beside the values); 330,000 compounds, 0.21% hits; AID 1053175;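 active means OD600 absorbance below the run mean of sample wells minus 3.6 SD, in any replicate, cut at about 0.56 in these data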;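 further: stock transfer was 300 nL into about 60 µL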
# T cruzi inh – blocks replication of Trypanosoma cruzi. T. cruzi beta-gal in NIH3T3, luminescence, 90 h. inhibition, % (test concentration not listed). 300,000 compounds, 1.4% hits. AID 1885;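 active means mean inhibition across valid replicates above about 55%, limit read from the data; inconclusive means mean below that limit but half or more replicates reach it; inactive means mean below it, under half of replicates reach it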;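 further: signal also drops with host cell toxicity which is not excluded here; 0% = plate median of DMSO wells and 100% = zero luminescence signal; higher percent means less beta-gal luminescence so fewer parasites; stock transfer was 50 nL into about 50 µL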
# A1 inh – inhibitors of the anti-apoptotic protein A1, read as caspase activation. 330,000 compounds, 0.066% hits. AID 2462. MEF A1-2A-BIM cells, Caspase-Glo 3/7 luminescence, 3 h; percent of clofoctol response, vehicle zero. caspase activation, % (concentration not given with the values);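 active means over half of replicate activation scores above 10%, or exactly half above 10 with the replicate mean above 10; inconclusive means replicate mean below 10 yet half the replicates above 10; inactive means over half of replicates below 10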;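 further: wells of about 30 µL received 50 nL stock; many hits fall short of the cut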
# Beta apoptosis – blocks beta cell apoptosis; INS-1E cytokine-induced death, ATP luminescence, 48 h; percent of positive-control rescue, neutral wells zero; protection from apoptosis, % (concentration not given with the values); 300,000 compounds, 0.8% hits;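 active means all replicates at 75% or more, or half of them and the mean; inconclusive means half reach 75% but not the mean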;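 further: 0% = cytokine-treated negative control wells and 100% = positive control rescue; higher means more ATP so stronger rescue from cytokine killing; wells of about 40 µL received 100 nL stock; the first replicate is given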
# FGF22 binding – FGF22 (human) thermal shift binding | Q9HCT0 | recombinant FGF22 thermal shift, SYPRO orange fluorescence; percent of sucrose octasulfate shift, DMSO zero | calls only at 9.99 µM | 340,000 compounds, 1.5% hits;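 active means melting point raised past a set limit in the mean and every replicate; inconclusive means no clear call; three in four hits are not shown here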
# Target sequence (Q9HCT0 whole entry, looked up): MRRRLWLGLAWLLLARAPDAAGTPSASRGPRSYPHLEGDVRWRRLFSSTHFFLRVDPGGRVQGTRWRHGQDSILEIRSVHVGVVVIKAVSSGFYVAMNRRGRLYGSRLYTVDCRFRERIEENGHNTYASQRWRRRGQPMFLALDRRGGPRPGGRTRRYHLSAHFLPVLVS
# UCH37 inh – human UCH37 deubiquitinating enzyme inhibition; Q9Y5K5; purified proteasome/UCH37, Ub-AMC cleavage fluorescence; inhibition, % (test concentration not listed); 330,000 compounds, 0.33% hits; AID 588478;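 active means mean of two replicates above 20%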;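 further: 0% = compound-free wells with enzyme and 100% = wells lacking proteasome; stock transfer was 100 nL into about 20 µL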
# Target sequence (Q9Y5K5 whole entry, looked up): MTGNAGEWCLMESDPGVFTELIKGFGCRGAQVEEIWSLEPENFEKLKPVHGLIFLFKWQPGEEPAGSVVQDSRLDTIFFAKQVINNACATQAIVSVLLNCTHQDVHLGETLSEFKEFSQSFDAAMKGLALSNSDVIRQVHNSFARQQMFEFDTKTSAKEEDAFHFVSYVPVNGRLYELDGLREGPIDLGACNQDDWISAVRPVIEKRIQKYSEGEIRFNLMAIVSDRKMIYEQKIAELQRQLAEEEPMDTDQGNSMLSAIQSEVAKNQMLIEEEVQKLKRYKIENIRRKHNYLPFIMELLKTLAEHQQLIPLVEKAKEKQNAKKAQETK
#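 System: Proteasome-associated human UCH37 deubiquitinase; Input: 0.15 nM proteasome in added enzyme buffer; Also added: Ub-AMC substrate from 1 µM stock; Incubation: 30 min compound-proteasome preincubation then 25 min substrate reaction, room temperature; Detection: fluorescence, ex 355 nm, em 460 nm; Read-out: % inhibition of Ub-AMC cleavage fluorescence; Benchmarks: no-proteasome and no-compound wells.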
# Ecoli rRNA inh – inhibits bacterial ribosomal RNA function over humanized ribosomes; GFP signal change (wild-type ribosome), % (test concentration not listed); 350,000 compounds, 1.6% hits; AID 720706; E. coli WT GFP vs humanized-ribosome RFP mutants, fluorescence, 24 h; stronger effect = lower value; DMSO median 0, no signal -100;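 active means significant combined selectivity score with lowered wild-type GFP, culture density cut under 30%, mutant RFP and density less affected; inactive means any of these conditions unmet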; further: one replicate is shown; some compounds called inactive have numbers as strong as hits
# MLL AF4-AF9 inh – inhibitors of human MLL-AF4/AF9 interaction; P42568; AlphaScreen, biotin-AF4 peptide binding to FLAG-AF9; inhibition, % at 10 µM; 350,000 compounds, 0.47% hits; AID 651704;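 active means every replicate reaching a set inhibition limit, whatever the replicate mean, cut at about 25% in these data; inconclusive means mean inhibition reaches that limit but some replicates miss it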;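 further: 0% = plate neutral control median and 100% = total signal loss; the record names both 10 and 1 µM as test concentration; the first replicate is given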
# Ecoli rRNA inh OD600 – further read-out of Ecoli rRNA inh, marked with its call; OD600 change, %; measured here: OD600 growth;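 optical density of the mix in the first replicate; 0 = DMSO median and -100 = no signal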
# Ecoli rRNA inh RFP – further read-out of Ecoli rRNA inh, marked with its call; RFP signal change, %; measured here: RFP humanized mutant strains;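 first replicate; 0 = DMSO median and -100 = no signal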
# Numbers without * were called inactive; i = inactive; ? = inconclusive; . = no result given; + = active, no number. The list is partial; the hit share may differ from the screen's.
SMILES,E coli growth,T cruzi inh,A1 inh,Beta apoptosis,FGF22 binding,UCH37 inh,Ecoli rRNA inh,Ecoli rRNA inh OD600,Ecoli rRNA inh RFP,MLL AF4-AF9 inh
CCOC(=O)C1=C(O)/C(=C/c2ccc(OCC(=O)O)c(OC)c2)SC1=Nc1ccc(OC)cc1,0.69,5,0.5,-3,i,17,8,11,3.2,6.1
CC(=O)NCCNC(=O)[C@H](Cc1ccccc1)NC(=O)c1cccs1,0.67,-16,-1.4,3,.,0.1,.,.,.,.
CC(=O)N1CCSc2ccc(S(=O)(=O)NCCc3ccc(C)cc3)cc21,0.66,21,0.2,10,i,-3.5,-28,-31,-0.3,-0.4
CCCCc1ccc(NC(=S)NCCc2ccc(S(N)(=O)=O)cc2)cc1,0.73,10,-0.4,1,i,1.2,-10,-12,13,-0.1
COC(=O)c1ccccc1NC(=O)c1cccc(NC(=O)c2ccc(Br)o2)c1C,0.65,3,-0.5,2,.,0.2,.,.,.,.
COc1ccc(OCc2nc(N)nc(Nc3ccccc3)n2)cc1,0.68,11,-0.3,.,.,5.1,.,.,.,.
CCN(CC)S(=O)(=O)c1ccc(NC(=O)COC(=O)c2cnc(C)cn2)cc1,0.67,-6,0.7,0,i,-1.6,3,-1,-0.1,-0.4
COc1cc(/C=N\Nc2nc(-c3cccs3)c(NC(C)=O)s2)ccc1O,.,-10,-0.1,0,i,.,10,2,4.8,-5.3
COc1ccc(Cl)cc1NC(=O)CSc1nnc(CN2CCOCC2)n1-c1ccc(Cl)cc1,0.72,8,-0.8,-13,.,1.9,.,.,.,.
C=C[C@H](CC(C)C)N(Cc1ccccc1)S(=O)(=O)N(Cc1ccccc1)[C@@H](C=C)CC(C)C,.,.,0.1,84*,i,-0.7,5,0,-3.5,-6.0
Cn1cnnc1SCC(=O)Nc1ncc([N+](=O)[O-])s1,0.61,.,-6.1,-3,i,6.8,-11,13,10,-6.0
O=C(CSc1nc2ccccc2[nH]1)N/N=C/c1ccncc1,.,-22,-0.3,-2,i,.,-5,2,1.0,-2.1
CCN(C(=O)c1c(C)noc1C)c1c(N)n(Cc2ccccc2)c(=O)[nH]c1=O,0.65,.,0.4,-3,i,3.2,6,16,-1.0,1.0
Nc1nc(-c2ccc(F)cc2)cs1,0.65,-3,-2.1,-3,i,2.3,-20,-18,-6.9,-3.0
O=C(NCc1cccnc1)C(=O)NCC(c1ccco1)N1CCN(c2ccccc2)CC1 (centres undefined),0.68,-21,0.5,-5,.,5.2,2,4,-1.5,0.8
COc1c(Cl)ccc(Cl)c1C(=O)NC(=O)Nc1nc(C)cc(C)n1,0.68,5,-0.4,-1,i,5.0,3,9,3.0,-0.9
O=C(NNC(=O)C1CCCC1)c1cc([N+](=O)[O-])cc([N+](=O)[O-])c1,0.66,.,0.1,0,i,0.1,0,-2,-1.8,-4.4
O=C(CN1C(=O)S/C(=C\c2ccc(F)cc2)C1=O)NCCCn1ccnc1,0.71,18,2.3,3,i,5.3,1,0,1.0,0.8
O=C(COC(=O)CCC(=O)c1ccc(F)cc1)NCc1ccccc1Cl,0.67,.,-0.1,-1,i,2.4,-30*,-18*,-3.9*,-4.1
COc1ccccc1N1CCN(CC(=O)Nc2c(C)n[nH]c2C)CC1,0.67,-4,1.3,1,.,1.5,.,.,.,.
Cc1nc2ccccc2c(=O)n1/N=C/c1ccccc1O,.,-2,0.2,3,i,.,2,5,-6.1,-6.0
CCCn1c(=N)c(S(=O)(=O)c2ccc(F)cc2)cc2c(=O)n3ccccc3nc21,0.67,-9,2.4,-2,i,-202,3,13,-1.6,0.2
Cn1c(CN2CCN(c3ccc(Cl)cc3)CC2)nc2ccccc21,0.68,5,1.3,-19,.,1.7,.,.,.,.
CCOC(=O)C(C)n1cnc2c(nnn2-c2cccc(OC)c2)c1=O (centres undefined),0.65,-9,-0.1,.,i,1.7,-4,3,-3.6,-1.9
O=C(NCc1ccccc1)c1c(O)c2cccc3c2n(c1=O)CCC3,0.74,3,0.3,-2,.,-2.5,.,.,.,.
COc1ccc(N2CCN(C(=O)CCc3nnc4ccc(N5CCC(C)CC5)nn34)CC2)cc1,0.69,-2,1.2,8,i,6.5,0,-19,0.1,3.1
CCOn1c(=O)c(-c2ccc(F)cc2)[n+]([O-])c2ccccc21,0.69,-4,1.2,6,i,-15,8,3,0.6,-0.3
O=C(O)c1cccc(-c2ccc(/C=N/Nc3nn[nH]n3)o2)c1,.,-13,-4.5,1,i,.,15,4,1.4,-1.9
CC1CC(C)CN(S(=O)(=O)CC23CCC(CC2=O)C3(C)C)C1 (centres undefined),0.64,9,0.8,0,i,2.4,-3,-1,2.1,-0.9
Cc1cc(C(=O)NNC(=O)c2ccccc2O)c(C)o1,0.7,.,-0.2,-1,i,1.5,0,3,-5.3,0.7
Cn1c(CCN2CCCCC2)nc2cc(NC(=O)Nc3ccccc3)ccc21,0.68,-15,0.7,-1,.,3.7,.,.,.,.
O=C(N=C1SC2CS(=O)(=O)CC2N1c1ccccc1)c1ccccc1 (centres undefined),0.71,.,-0.5,-7,i,5.6,0,12,-4.0,0.2
COc1cc(C(=O)NCCNC(=O)C2CCCNC2=O)cc(OC)c1OC (centres undefined),0.68,-4,1.5,-8,i,4.1,11,5,3.0,0.9
Cc1ccc(S(=O)(=O)N(CC(=O)NC2CC2)c2ccc(C)c(Cl)c2)cc1,0.63,-1,0.3,2,i,0.3,-10,-25,-2.7,-3.9
Cc1ccc(O)c(NC(=O)/C=C/C(=O)O)c1,0.71,-13,-0.2,-3,i,0.0,.,.,.,0.6
N#Cc1ccc(Oc2ccc(NC(=O)C3CC=CCC3C(=O)O)cc2)cc1 (centres undefined),.,-7,0.0,1,i,.,-4,-1,-7.2,-0.3
Cc1cccc(-c2nnc3n2N=C(c2ccc(Br)cc2)CS3)c1,0.75,-10,-0.1,-9,.,1.4,.,.,.,.
O=C1C=CC(=Nc2ccc3c(c2)Cc2ccccc2-3)O1,0.68,.,.,.,i,8.5,-18,-4,-3.2,0.0
O=C(CC(=O)N/N=C\c1ccccc1)NCCc1ccccc1,.,-7,0.4,-8,i,.,8,12,-1.2,0.7
CC(C)NC(=O)[C@H](CSCc1ccccc1)N1Cc2ccccc2C1=O,0.68,-5,-0.3,.,i,4.5,1,2,3.6,1.7
CCOc1nc(C)ccc1-c1noc(-c2ccccc2OC)n1,0.71,9,1.2,-4,.,5.1,.,.,.,.
CN(C(=O)Nc1cccc(C(F)(F)F)c1)C1CCCCC1,0.68,-2,-0.8,-7,i,4.2,4,17,-2.9,-1.1
O=[N+]([O-])c1cc(Cl)ccc1NCCNc1ncc(C(F)(F)F)cc1Cl,0.76,31,?,9,.,0.6,.,.,.,.
COc1ccc2oc(C(=O)OCC(=O)N3CCN(S(=O)(=O)c4ccccc4)CC3)c(C)c2c1,0.72,6,0.2,1,i,-30,4,3,8.1,5.4
COC(=O)c1scc(S(=O)(=O)C(C)(C)C)c1-n1cccc1,0.61,1,0.9,-9,i,2.1,-3,-5,9.0,.
O=C(N/N=C/c1coc2ccc(Cl)cc2c1=O)c1ccc(O)cc1,.,-2,0.6,-15,i,.,-6,-13,-0.5,2.4
O=C(c1ccco1)N(Cc1ccco1)c1ccc(O)cc1,0.66,-20,-0.4,2,.,5.9,.,.,.,.
O=C(CSc1nnc(-c2ccccc2F)o1)N1CCCC1,0.67,-3,0.3,5,i,3.7,10,7,-2.2,-3.6
Nn1c(SCc2cccc3ccccc23)nnc1-c1ccco1,0.72,11,0.1,14,.,1.6,.,.,.,.
Cc1[nH]c2ccccc2c1C(=O)C(=O)NCCOc1ccccc1,0.73,-14,-0.1,-16,+,7.4,-10,6,6.4,-2.6

# Sorted by the number under Ecoli rRNA inh OD600 (falling): some entries from above.
mol	Ecoli rRNA inh OD600
O=C(CC(=O)N/N=C\c1ccccc1)NCCc1ccccc1	12
COc1ccc2oc(C(=O)OCC(=O)N3CCN(S(=O)(=O)c4ccccc4)CC3)c(C)c2c1	3
COc1ccc(N2CCN(C(=O)CCc3nnc4ccc(N5CCC(C)CC5)nn34)CC2)cc1	-19

# Next part:
SMILES,E coli growth,T cruzi inh,A1 inh,Beta apoptosis,FGF22 binding,UCH37 inh,Ecoli rRNA inh,Ecoli rRNA inh OD600,Ecoli rRNA inh RFP,MLL AF4-AF9 inh
COc1cc(Cl)ccc1S(=O)(=O)n1nc(C)cc1C,0.69,6,0.7,.,.,3.8,.,.,.,.
N#CCCN(Cc1cccs1)C(=O)c1ccc(Cl)cc1,0.58,.,0.3,-7,i,3.0,3,2,-0.6,1.0
Cc1cc(/C=C2\SC(=S)N(Cc3ccco3)C2=O)c(C)n1-c1ccccc1,0.77,34,-0.6,5,.,10,.,.,.,.
CCSc1nnc(-c2cccnc2)n1Cc1ccco1,0.67,.,0.4,-5,.,3.5,.,.,.,.
CSc1ncccc1C(=O)NNc1cc(Cl)ccc1Cl,0.67,-6,0.0,-10,.,-1.4,.,.,.,.
O=C(COC(=O)c1ccccn1)NCCc1ccc(Cl)cc1,0.65,.,-0.4,1,i,3.3,4,12,-0.1,-1.1
O=C(C1CCCN(Cc2ccccc2F)C1)N1CCCCC1 (centres undefined),0.66,17,-0.2,3,i,4.3,12,15,3.6,2.7
Nc1nc(SCC(=O)Nc2cc(Cl)c(Cl)cc2Cl)n[nH]1,0.71,.,1.1,-3,i,4.7,-52,-70,-17,-0.8
Cc1ccc(S(=O)(=O)NC(=O)Nc2cc(C)ccc2F)cc1,0.66,5,0.6,-2,.,1.0,.,.,.,-1.4
C[C@H]1CN([C@@H](C)CO)C(=O)c2cccc(NC(=O)c3cnccn3)c2O[C@@H]1CN(C)S(=O)(=O)c1ccc(F)cc1,.,.,2.0,5,.,1.1,0,4,-1.9,.
O=C(OCC#Cc1c(COC(=O)c2ccccc2)nnn1Cc1ccccc1)c1ccccc1,0.67,3,0.3,-4,i,-1.8,2,-1,-0.4,.
CCCCN(CCCC)S(=O)(=O)c1ccc(NS(=O)(=O)c2ccc(NC(C)=O)cc2)cc1,0.67,9,0.5,-3,i,0.2,-4,1,0.5,6.1
CSc1nc2[nH]ncc2c(=O)n1-c1ccccc1,0.76,-12,0.0,-2,i,0.4,21,14,-8.2,2.2

# Screening data as filed in PubChem.
